# Compound activity (PubChem)
# CtBP-E1A inh: blocks the CtBP interaction with E1A; 340,000 compounds, 0.49% hits; activity change, % (concentration not given with the values); AID 651724; AlphaScreen GST-E1A/His-CtBP binding, 1536-well; stronger effect = lower value; control for the full effect not named in the record; in the data active means activity change below about -65%; inconclusive means about -30% to -65%; inactive means above about -30%; further: on the % scale 0 is the no-effect control and ±100 the full control effect
#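 Steps: dispense buffer (Tris pH 8.0, NaCl 300 mM, TCEP 1 mM, BSA, Tween 20); add 5X protein mix (GST-E1A, His-CtBP, 125 nM each); pin 23 nL compound; 2 h at 37 °C, dark; add 5X beads (50 ug/mL); 1 h; read.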
# Sfp PPTase inh: inhibitors of Bacillus subtilis Sfp phosphopantetheinyl transferase | 310,000 compounds, 3.5% hits | Biochemical Sfp PPTase activity, qHTS | Potency, µM, for the others: max response, negative = inhibition, usual class: inhibitors; active means well fitted inhibition curve with a large enough effect; inconclusive means small, poorly fitted or top-dose-only effect, or another doubt; inactive means no such curve, though single readings can be large or run the other way;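 further: the enzyme is Sfp with the accession as filed and its product quenches rhodamine fluorescence; potency means the concentration at half of the fitted maximal effect; 0% = enzyme reaction without inhibitor and -100% = no enzyme wells; top concentration of the series not given in the record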
#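 Fluorescence-quenching assay: 15 nM Sfp-PPTase preincubated 15 min at room temperature with compound, then 5 uM rhodamine-CoA and 12.5 uM BHQ-2-labelled YbbR peptide added. Fluorescence (ex 525/em 598 nm) read at start and after 30 min; difference gives rate.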
# gsp agonist: activates gsp, the McCune-Albright syndrome mutation; gsp mutant cells, cAMP HTRF, 30 min; control for the full effect not named in the record; Potency, µM (series often up to 76.9 µM), without a hit: at the highest dose activation (cAMP increase), usual class: activators; 340,000 compounds, 0.13% hits; AID 624287; active = well fitted activation curve with a large enough effect; inconclusive = small, poorly fitted or top-dose-only effect, or another doubt; inactive = no such curve, though single readings can be large or run the other way; cell line not stated here;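 further: phosphodiesterase inhibitor Ro 20-1724 added with compounds to block cAMP breakdown; potency means the concentration at half of the fitted maximal effect; nearly all actives have a fitted effect of over 60% in size; about a fifth of the inactives were tested at one dose only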
#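 Cells in DMEM/10% FBS with G418 were pretreated with compounds in DMSO plus […] (300 uM stock) for 30 min at 37C. cAMP was measured by HTRF (cAMP-d2 plus anti-cAMP antibody-K) after 30 min at room temperature.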
# Menin MLL FP FL: inhibitors of human menin-MLL interaction, wild-type MLL peptide; AID 1766; FP activity change, % at 61.4 µM; Fluorescence polarization, fluorescein-MLL peptide displacement from menin; 290,000 tested, under 10 active; inconclusive = falling polarisation curve, or a change in total fluorescence; inactive = total fluorescence flat and polarisation flat or rising; no compound was filed as active; the % refers to the polarisation; negative = inhibition;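 further: % of control where 0% means no effect; inhibitors lower the polarisation; unlabelled MLL peptide was the positive control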
# ClpP mod: qHTS Assay for Activators of ClpP; Potency, µM (doses to about 57.5 µM), for the others: top-dose activity change, negative = active; AID 651965, 2013; purified B. subtilis ClpP, FRET peptide cleavage, 20 min; 340,000 compounds, 1.9% hits; ATP-dependent Clp protease proteolytic subunit (Bacillus subtilis (strain 168)), P80244; active = well fitted falling curve with a large enough effect; inconclusive = small, poorly fitted or top-dose-only effect; inactive = no such curve, though single readings can be large or run the other way; further: potency means the concentration at half of the fitted maximal effect; the source files actives as falling curves though it sought activators and does not explain the sign; nearly all actives have a fitted effect of over 65% in size; many hits overshoot -100%
# Target sequence (P80244 whole entry, looked up): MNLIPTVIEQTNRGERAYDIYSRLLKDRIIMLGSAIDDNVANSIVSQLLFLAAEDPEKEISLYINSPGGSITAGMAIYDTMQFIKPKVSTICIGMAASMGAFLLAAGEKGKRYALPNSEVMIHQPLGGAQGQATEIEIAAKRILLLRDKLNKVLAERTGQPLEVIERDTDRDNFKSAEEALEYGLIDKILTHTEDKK
#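 FRET quenching reversal measured ClpP activation: 10 microg/mL B. subtilis ClpP at pH 8 with the FRET-FV decapeptide, read at 430 nm after 320 nm excitation. The 20-min minus 0-min signal was scaled between DMSO/no-enzyme wells and ADEP (5.8 microM final).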
# TRPV1 potentiator: enhances activation of the human vanilloid receptor TRPV1 | AID 540277 | potentiation, % at 8.33 µM | 320,000 compounds, 0.02% hits | TRPV1-expressing cells, Fluo-8 calcium influx, capsaicin EC20 potentiation; host cell line not named in the record; control for the full effect not named in the record; active means potentiation above 80%; inconclusive means 30% to 80%; inactive means below 30%; further: 0% is about no effect
# Target sequence (Q8NER1 whole entry, looked up): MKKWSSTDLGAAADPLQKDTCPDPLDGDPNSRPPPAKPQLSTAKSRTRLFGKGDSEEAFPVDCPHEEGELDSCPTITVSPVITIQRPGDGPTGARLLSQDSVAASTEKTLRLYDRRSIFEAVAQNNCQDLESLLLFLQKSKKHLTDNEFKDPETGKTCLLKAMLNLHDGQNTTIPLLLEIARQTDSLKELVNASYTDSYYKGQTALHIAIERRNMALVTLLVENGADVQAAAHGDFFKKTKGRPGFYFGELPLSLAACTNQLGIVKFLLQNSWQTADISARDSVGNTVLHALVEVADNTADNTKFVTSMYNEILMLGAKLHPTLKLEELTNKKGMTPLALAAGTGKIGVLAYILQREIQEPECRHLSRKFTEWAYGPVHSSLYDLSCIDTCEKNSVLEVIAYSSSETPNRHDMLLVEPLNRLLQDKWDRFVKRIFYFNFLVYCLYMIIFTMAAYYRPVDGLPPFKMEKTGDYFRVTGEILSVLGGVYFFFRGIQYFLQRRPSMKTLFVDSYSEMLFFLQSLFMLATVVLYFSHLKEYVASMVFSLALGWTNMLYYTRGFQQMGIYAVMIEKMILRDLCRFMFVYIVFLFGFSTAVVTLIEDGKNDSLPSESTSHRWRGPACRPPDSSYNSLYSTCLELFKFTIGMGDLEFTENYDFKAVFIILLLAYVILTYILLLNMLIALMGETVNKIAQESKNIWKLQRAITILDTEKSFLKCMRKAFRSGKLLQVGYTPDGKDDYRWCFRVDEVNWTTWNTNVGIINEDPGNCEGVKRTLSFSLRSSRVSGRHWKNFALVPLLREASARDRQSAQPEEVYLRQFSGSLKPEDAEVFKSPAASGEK
#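 TRPV1-expressing cells were cultured overnight at 35.5C and loaded with Fluo-8 calcium dye for 40 to 90 min at room temperature. After a 10 s baseline, compound was added and calcium influx was read kinetically for 3 min (ex 480/em 520 nm).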
# gsp antagonist: antagonizes gsp, the McCune-Albright syndrome mutation | Potency, µM (doses to about 76.9 µM), without a hit: at the highest dose activity change, negative = inhibition, actives largely listed as inhibitors | 340,000 compounds, 0.4% hits | AID 624288 | gsp-mutant cells, cAMP HTRF, 30 min; control for the full effect not named in the record; active = falling curve of any shape with a large fitted effect; inconclusive = falling curve, mostly with a smaller effect; inactive = flat or rising curve; cell line not stated here;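 further: intracellular cAMP measured with PDE inhibitor Ro 20-1724 present during compound exposure; potency means the concentration at half of the fitted maximal effect; on the % scale 0 is the no-effect control and ±100 the full control effect; nearly all actives have a fitted effect of over 65% in size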
#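 Cells, 2000/well, grown 16–24 h in DMEM 10% FBS with 0.5 mg/ml G418, then compounds plus […] (300 uM addition stock), 30 min at 37C. cAMP read by HTRF (cAMP-d2 and anti-cAMP antibody-K in lysis buffer) after 30 min RT.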
# * hit, by the source's call; u = inconclusive; x = not tested or not shown; & = joins results of further samples; [ ] = another dose, or the depositor's remark.
SMILES,CtBP-E1A inh,Sfp PPTase inh,gsp agonist,Menin MLL FP FL,ClpP mod,TRPV1 potentiator,gsp antagonist
Cc1cc(NC(=O)CN2C(=O)/C(=C/c3ccccc3F)SC2=S)no1,0.0,-8.2%,0.8%[15.4 µM],-3.2,x,25.2,-16.2%
O=C(NCCCN1CCOCC1)C(=O)NCC1OCCN1S(=O)(=O)c1ccc(Cl)cc1 (stereo not given),0.5,x,-68.0%[inhibitor],x,-3.9%,x,x
Cc1ccc2nc(-c3ccccn3)cc(C(=O)Nc3ccc4c(c3)OCO4)c2c1,-16.3,-10.6%,-0.7%[15.4 µM],1.2,1.6%,9.6,-19.4%
C=CC[C@H](CC(=O)NCCO)C(=O)N[C@H](COC(=O)[C@H](CC=C)CC(=O)OC(C)(C)C)Cc1c[nH]c2ccccc12,-4.7,x,x,x,-0.5%,x,-2.2%
CCCCn1c(N)c(N(CCOC)C(=O)c2ccc(-c3ccc(C(C)=O)cc3)o2)c(=O)[nH]c1=O,6.6,x,-2.9%[15.4 µM],x,31.6µM*,u,-0.4%
O=C(Nc1ccc(-c2nc3ccccc3[nH]2)cc1)C1CCCO1 (stereo not given),6.1,16.9%,-3.1%,-1.6,u,19.6,-1.3%
Cc1ccc(S(=O)(=O)N2Cc3ccccc3CC2C(N)=O)cc1 (stereo not given),2.8,x,-106.7%[inhibitor],x,2.8%,x,x
O=C(O)c1ccccc1C(=O)NNc1ccc(F)cc1F,x,1.1%,-39.2%,5.5,0.2%,8.7,1.6%
COCCn1c(SCC(=O)Nc2ccc(NC(C)=O)cc2)nc2c([nH]c3ccccc32)c1=O,5.0,-9.2%,13.3%[15.4 µM],x,-24.1%,1.2,-1.9%
CCOC(=O)c1c(C)[nH]c(C(=O)OC/C(O)=C(\C#N)c2nc3ccccc3[nH]2)c1C,-11.9,23.1%,4.4%,14.4,-11.3%,15.1,1.9%
CCc1ccc(C(=O)COC(=O)c2cncc(Br)c2)cc1,-17.7,18.3%,-14.5%[15.4 µM],2.5,x,2.3,23.7%
CC(C)CN(C(=O)COC(=O)CCc1c[nH]c2ccccc12)c1c(N)n(Cc2ccccc2)c(=O)[nH]c1=O,1.1,x,23.3%[15.4 µM],x,x,-8.2,0.4%
COc1ccc(CCN2C(=NC(=O)C(C)C)SC3CS(=O)(=O)CC32)cc1OC (stereo not given),4.2,10.6%,-9.6%[15.4 µM],0.6,-1.8%,u,-7.2%
Cc1ccc(S(=O)(=O)NCCC(=O)Nc2nnc(C)s2)cc1,-1.2,0.6%,-17.9%,-0.5,-1.2%,24.9,11.5%
O=C(NCCC1=CCCCC1)c1cnsn1,0.8,4.1%,-15.1%,1.4,-0.6%,-5.9,-2.6%
C[C@H]1CN([C@@H](C)CO)C(=O)CCCn2cc(nn2)CO[C@@H]1CN(C)C(=O)Nc1cccc(Oc2ccccn2)c1,0.1,x,-32.1%,x,-1.4%,x,x
Cc1ccc(S(=O)(=O)Nc2ccc(-c3csc(-c4ccccc4)n3)cc2)cc1,-2.9,13.6%,14.6%[15.4 µM],1.9,-23.6%,8.9,-2.0%
C#CCSc1nnnn1-c1ccc(Br)c(C)c1,-18.6,7.3%,9.0%,-1.3,x,9.4,6.5%
N#Cc1ccc(C(=O)OCC(=O)Nc2ccc(S(N)(=O)=O)cc2)cc1,4.4,-2.1%,1.2%[15.4 µM],-1.2,x,5.6,9.6%
CCOC(=O)CN(Cc1sccc1C)C(=O)Nc1ccc(OCC)cc1,8.2,14.1%,9.1%,4.6,-0.8%,-2.3,-11.1%
COc1cccc(/C=C/C(=O)OCCN2C(=O)c3ccccc3C2=O)c1,9.9,-11.1%,2.0%,-0.1,4.7%,5.2,-10.3%
COc1ccc(S(=O)(=O)N2CCOCC2)cc1NC(=O)C1CC1,-1.3,x,19.0%,x,x,x,17.7%
Cc1ccccc1OCC(O)CN (stereo not given),4.0,5.9%,-17.6%,-1.8,-1.1%,0.3,17.9%
CCCS(=O)(=O)N1CCN(C2Cc3ccccc3C2)CC1,-0.2,89.1µM*,18.9%,0.8,-6.1%,u,14.6%
Cc1ccc(/C=N\NC(=O)c2cncc(Br)c2)o1,-24.8,-29.9%,1.5%,0.9,0.0%,3.3,0.0%
CCCOC(=O)Cn1c(=O)c2cc3c(=O)n(CC(=O)OCCC)c(=O)c3cc2c1=O,-3.4,6.7%,-4.9%,1.5,-3.6%,-6.1,-7.1%
CN(CCOc1ccccc1)CCOc1ccccc1,-0.4,9.5%,16.8%,0.8,x,-10.9,9.5%
CCOC(=O)C1CCCN(C(=O)c2cn(C)c3ccc(S(=O)(=O)N4CCCC4)cc3c2=O)C1 (stereo not given),3.0,10.7%,11.7%,2.6,-0.4%,-7.4,-5.4%
S=c1nc[nH]c2c1sc1nc(N3CCOCC3)c3c(c12)CCCC3,-11.8,7.7%,-12.4%[15.4 µM],0.5,x,10.2,-8.1%
S=C(NCc1ccccc1)Nc1cccc2cnccc12,0.0,56.2µM*,7.4%[15.4 µM],-2.6,x,-23.5,-11.0%
O=[N+]([O-])c1cc(/C=N/Nc2nc(N3CCOCC3)nc(N3CCOCC3)n2)ccc1Cl,-3.1,7.0%,-23.9%,4.6,-2.1%,-4.5,1.4%
Cc1ccc(S(=O)(=O)N2CCCCC2)cc1NC(=O)c1ccc2c(=O)n3c(nc2c1)CCCCC3,x,28.0%,x,5.1,x,2.0,x
Cc1ccc(-n2c(N)cc(=O)nc2SCC(=O)NC2CCCCC2)cc1C,-7.2,17.7%,24.7%,-1.3,-2.0%,-1.3,7.7%
CCOc1cc(C(=O)CCC(=O)OCC(=O)NC(=O)NCC(C)C)ccc1O,-3.7,14.0%,-27.9%,1.1,-2.4%,7.0,-13.6%
CC(=O)N1CCC2(CC1)NC(=O)N(c1ccccc1)N2,5.3,-3.8%,5.6%[15.4 µM],1.4,x,1.3,-3.3%
O=C(Nc1ccnn1C1CCN(Cc2ccc(CO)o2)CC1)c1ccccc1,1.4,10.6%,u,x,-0.8%,-1.4,10.6%
COc1cc(C2C(C#N)=C(C)NC3=C2C(=O)CC(C)(C)C3)ccc1O (stereo not given),-0.8,11.3%,13.0%,-4.7,-1.6%,28.8,-15.1%
COc1ccc(NC(=O)CCC(=O)N/N=C/c2ccc([N+](=O)[O-])s2)cc1,0.0,5.8%,-48.1%[inhibitor],1.1,1.3%,-6.3,0.9%
COc1cccc(C(=O)Nc2nnc(C3CCCO3)s2)c1 (stereo not given),-4.3,-8.4%,24.7%,0.7,-4.1%,-5.4,-1.2%
C/C(=N\NC(=O)c1ccco1)c1ccc(C(=O)O)s1,6.5,23.6%,u,x,-2.0%,u,-0.7%
CC(=O)c1c(C)[nH]c(=S)c(C#N)c1-c1ccc(F)cc1,x,44.7µM*,18.8%,1.6,-1.3%,21.8,-14.0%
Cc1cc(OC(=O)c2ccc(OC(C)C)cc2)c([N+](=O)[O-])c(=O)[nH]1,x,16.6%,-10.4%,x,0.6%,15.1,6.0%
Cc1ccc(CN(C)C[C@@H]2OCc3cnnn3CCCC(=O)N([C@@H](C)CO)C[C@H]2C)cc1,3.7,x,-71.5%[inhibitor],x,0.0%,x,x
N#CC(C#N)=C1NC(N)=C(C#N)C(c2ccccc2)=C1C#N,x,56.2µM*,x,20.2,x,12.1,x
O=C(NNC1=Nc2cccc3cccc1c23)c1ccccc1Br,1.2,10.9%,-7.0%,4.1,-0.9%,1.0,u
CCOc1ccc(C(=O)NCC(c2cccs2)N(C)C)cc1 (stereo not given),-2.6,5.1%,-4.9%,-1.3,-1.9%,-1.4,12.7%
Cc1cn(-c2cc(C(=O)Nc3ccc(C)c(NC(=O)N4CCNC4=O)c3)cc(C(F)(F)F)c2)cn1,5.8&5.3,1.7%,28.7%&5.1%,0.0,-0.7%&8.0%,u,7.3%
CCOC(=O)c1sc(NC(=O)CSC(=S)N2CCOCC2)nc1C,3.3,2.2%,10.4%[15.4 µM],4.8,-3.6%,6.0,9.8%
CCCCn1nc(C(=O)NC2CCCCC2)c2ccccc2c1=O,-18.0,x,-49.4%[inhibitor],x,-3.9%,x,x
Cc1cc(-c2ccccc2)c2c3c(cn2n1)c(=O)n(C)c(=O)n3C,-8.8,1.3%,-25.9%,0.8,1.1%,-33.6,-0.7%

# (next part)
SMILES,CtBP-E1A inh,Sfp PPTase inh,gsp agonist,Menin MLL FP FL,ClpP mod,TRPV1 potentiator,gsp antagonist
O=C(NCCCN1CCCC1)c1ccc(CS(=O)(=O)c2c(Cl)cccc2Cl)o1,-12.1,6.3%,25.3%,x,-0.6%,21.3,13.0%
CCc1ccc(N(CC)c2ncnc3nc[nH]c23)cc1,24.9,-6.1%,-33.3%[inhibitor],-2.9,0.4%,-10.5,4.2%
COc1ccc(CCc2ccc3cc(OC)ccc3n2)cc1,16.8,x,7.2%,x,x,x,-14.4%
COc1ccc(-c2ccc(CN3C(C(C)C)C(=O)N(Cc4cn(CC5CCCCC5)nn4)CCS3(=O)=O)cc2)cc1OC (stereo not given),-6.5,x,-250.2%[inhibitor],x,u,x,x
CC1=C(C(=O)OCc2ccccc2)C(c2ccc3c(c2)OCO3)NC(=O)N1CCCC(=O)O (stereo not given),2.5,x,21.9%,x,-0.1%,x,-6.1%
CN1/C(=C\C(=O)c2cccc(S(=O)(=O)N3CCCCC3)c2)C(C)(C)c2ccccc21,x,9.4%,-25.9%,2.5,-2.7%,16.7,-9.9%
O=C(COc1ccc2c(-c3ccccc3)cc(=O)oc2c1)NCC(O)c1ccccc1 (stereo not given),1.0,24.2%,x,-4.7,-0.5%,14.2,-2.8%
Cc1nc2ccccc2c(-c2ccccc2)c1C(=O)c1ccccc1,-0.7,-12.7%,-3.2%,-0.8,-2.5%,-7.6,-8.7%
O=C(NCc1cccs1)C1CC(=O)N(Cc2ccccc2)C1 (stereo not given),-9.4,x,2.9%,x,x,x,9.1%
COc1ccc(C2=NN(C(=O)COC(=O)c3ccc(S(C)(=O)=O)c([N+](=O)[O-])c3)C(c3ccco3)C2)cc1 (stereo not given),-1.0,x,26.2%,x,-7.3%,x,1.6%
